Screening results deposited in PubChem by Johns Hopkins Ion Channel Center.
KCNQ2 block: KCNQ2 channel blockers in CHO-K1 cells – cell-based, FluxOR thallium flux, B-score, primary screen (AID 2156); 20 min; stronger effect = lower value; only compounds with negative scores are shown here; some inactives read as strong as hits; B-score at 10 µM; 310,000 compounds, 1.1% hits;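 active = fluorescence ratio B-score at most minus 3 library SDs, with starting brightness B-score within 2 library SDs, cut at about -5.5 in these data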
Target sequence (O88943 whole entry, looked up): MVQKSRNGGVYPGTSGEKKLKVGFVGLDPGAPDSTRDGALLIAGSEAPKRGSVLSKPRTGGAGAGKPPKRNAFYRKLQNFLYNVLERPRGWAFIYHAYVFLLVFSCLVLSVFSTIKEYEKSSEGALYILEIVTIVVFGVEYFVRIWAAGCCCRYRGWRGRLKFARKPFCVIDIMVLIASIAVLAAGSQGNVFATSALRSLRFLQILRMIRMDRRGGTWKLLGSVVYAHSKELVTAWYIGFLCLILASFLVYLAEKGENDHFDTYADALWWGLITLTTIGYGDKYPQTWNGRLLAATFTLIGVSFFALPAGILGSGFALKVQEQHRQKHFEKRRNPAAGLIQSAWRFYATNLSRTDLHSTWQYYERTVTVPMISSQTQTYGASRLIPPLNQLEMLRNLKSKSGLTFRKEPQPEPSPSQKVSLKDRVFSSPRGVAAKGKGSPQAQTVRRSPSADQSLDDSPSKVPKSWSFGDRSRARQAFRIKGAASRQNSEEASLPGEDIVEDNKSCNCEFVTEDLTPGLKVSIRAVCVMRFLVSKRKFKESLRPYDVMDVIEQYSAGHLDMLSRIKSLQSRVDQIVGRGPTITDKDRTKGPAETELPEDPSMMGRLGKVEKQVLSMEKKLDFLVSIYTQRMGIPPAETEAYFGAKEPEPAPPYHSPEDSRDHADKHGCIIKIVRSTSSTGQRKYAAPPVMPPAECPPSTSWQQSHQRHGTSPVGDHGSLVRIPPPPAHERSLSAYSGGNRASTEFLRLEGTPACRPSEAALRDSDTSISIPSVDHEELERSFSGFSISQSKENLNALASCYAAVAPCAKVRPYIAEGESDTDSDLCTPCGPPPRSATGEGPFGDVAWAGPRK
KCNQ2 block baseline: recorded beside KCNQ2 block, whose call it bears; B-score; measured here: initial fluorescence intensity artifact check;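 brightness before thallium and not channel activity; 0 = typical well and far values either way flag optical interference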
Active calls of the source: *; i = inactive. Only part of the results is shown; the hit share may differ from the screen's.

mol | KCNQ2 block baseline | KCNQ2 block
COC(=O)c1cc(NS(=O)(=O)c2ccc(NCc3cccnc3)c([N+](=O)[O-])c2)cc(C(=O)OC)c1 | 2.48 | i
O=C(Nc1ccccc1OC(F)F)c1cccc(S(=O)(=O)N2CCCC2)c1 | 0.56 | i
COc1ccc(/C=C(/C(=O)c2ccc(Cl)cc2Cl)n2cncn2)cc1 | -0.46 | i
CN(C(=O)c1cnc(N2CCN(c3ncccn3)CC2)c2ccccc12)c1ccc(Cl)cc1 | -0.44 | i
NC(=O)CSc1nccn1Cc1ccc(Cl)cc1 | 0.63 | i
O=C(NCC(c1ccco1)N1CCCCC1)C(c1ccccc1)c1ccccc1 (stereo unspecified) | 0.81 | i
COc1ccc(S(=O)(=O)N(CC(=O)N2CCN(C)CC2)C2CCCCC2)cc1OC | 2.63 | i
COc1ccc(OCC(=O)N2CCN(c3nnc(-c4ccccc4)c4ccccc34)CC2)cc1 | -1.04 | i
Cc1ccc(C)c(OCCCCCn2ccnc2)c1 | 1.95 | i
CCc1nc(CNC(=O)C2CCC(=O)N(CCc3cccc(F)c3)C2)no1 (stereo unspecified) | 0.08 | i
N#CCSc1nnc(Cc2cccc3ccccc23)n1C1CCCCC1 | 1.53 | i
O=C(NCCn1cc(SCc2ccc(F)cc2)c2ccccc21)c1ccccc1F | 0.53* | -9.09*
O=S(=O)(c1ccccc1)N1CCN(C(c2ccccc2)c2ccc(OC(F)(F)F)cc2)CC1 (stereo unspecified) | -0.04 | i
Cc1ccccc1NC(=S)N(Cc1cccnc1)Cc1ccccc1Cl | 0.3 | i
COc1nc(OCCNC(C)=O)nc(N(C)C)n1 | -1.15 | i
Cc1ccc(-c2nc(C=Nc3ccc(O)cc3)c(O)o2)cc1 | 1.98 | i
O=C(NCCCN1CCN(CCCNC(=O)c2ccc(F)cc2)CC1)c1ccc(F)cc1 | 0.68 | i
COc1ccc(-c2nnc3ccc(SCC(=O)NCc4ccco4)nn23)cc1OC | 1.01 | i
COc1ccccc1NC(=O)/C(C#N)=C/c1cccn1C | 0.23 | i
CCCc1cc(-c2n[nH]c(=S)n2CC)c2ccccc2n1 | -1.25 | i
CCOc1cccc2cc(C(=O)Nc3cc(C)on3)c(=O)oc12 | 2.95 | i
COc1ccc(C(=O)N/N=C(\C)c2ccccn2)cc1OC | 0.35 | i
C=CCNC(=O)COC(=O)c1ccc(C)c(NC(=O)c2ccco2)c1 | -0.32 | i
COc1cc(CNCCc2ccccc2)ccc1OCc1ccc(Cl)nc1 | -0.15 | i
Cc1ccc(NC(=O)c2ccc(S(=O)(=O)NCC3CCCO3)cc2)cc1 (stereo unspecified) | 0.47 | i

Single records, as listed above. Values in the order: KCNQ2 block baseline | KCNQ2 block
`Cc1ccc(-c2nc(C=Nc3ccc(O)cc3)c(O)o2)cc1` in the list: 1.98 | i
`COc1ccc(C(=O)N/N=C(\C)c2ccccn2)cc1OC` in the list: 0.35 | i
`N#CCSc1nnc(Cc2cccc3ccccc23)n1C1CCCCC1` in the list: 1.53 | i
`CCCc1cc(-c2n[nH]c(=S)n2CC)c2ccccc2n1` in the list: -1.25 | i
`CCc1nc(CNC(=O)C2CCC(=O)N(CCc3cccc(F)c3)C2)no1` (stereo unspecified) in the list: 0.08 | i

(cont.)
mol | KCNQ2 block baseline | KCNQ2 block
COc1ccc(Nc2cc(C(=O)NCc3ccco3)c3ccccc3n2)cc1 | -1.3 | i
CCOC(=O)c1nnc(-c2ccccc2)nc1N1CCSCC1 | 1.46 | i
O=C(NCc1ccco1)c1cc2sccc2n1Cc1ccccc1 | -1.95 | i
O=C(O)CN=C1CC(c2ccccc2)CC(=O)/C1=C(/O)CCCN1C(=O)c2ccccc2C1=O (stereo unspecified) | 0.94 | i
CC(C)CCNC(=O)Cc1csc(-c2ccccc2)n1 | 0.66 | i
C=CCNC(=O)C1CC1(c1ccccc1)c1ccccc1 (stereo unspecified) | -1.25 | i
CCC(C)Sc1cccc(-c2nc3cc(C)ccn3c2NCc2ccccc2)c1 (stereo unspecified) | 0.55* | -6.73*
CCCCn1c(N)c(N(CC(C)C)C(=O)C2CCN(c3ncnc4sc(C)c(C)c34)CC2)c(=O)[nH]c1=O | -1.81 | i
CCNC(=S)NC1CC2CCCC(C1)N2Cc1ccc(C)cc1 (stereo unspecified) | -0.18 | i
NS(=O)(=O)c1ccc(CNC(=O)CCS(=O)(=O)Cc2ccccc2)cc1 | 0.29 | i
COc1ccc(Cc2nnc(NC(=O)Nc3ccc(F)cc3)s2)cc1 | 0.48 | i
Cc1ccc(C#N)c(SCc2ccccc2F)n1 | -0.01 | i
O=[N+]([O-])c1cc(-c2csc(NCCc3nc4cc(C(F)(F)F)ccc4n3CCCO)n2)ccc1Cl | -2.03 | i
O=C(COC(=O)c1cc([N+](=O)[O-])ccc1N1CCOCC1)Nc1ncc(Cl)cc1Cl | -1.06 | i
O=C1CCCC(O)=C1C=Nc1ccc2c(c1)oc1ccccc12 | 1.15 | i
O=C(O)c1ccc(/C=C2\SC(=S)N(Nc3ccccc3)C2=O)cc1 | -0.93 | i
NCCCNC(=O)c1cc2ccccc2[nH]1 | 0.24 | i
O=C(Oc1cc(-c2ccccc2)no1)c1ccc(Cl)cc1 | -1.81 | i
O=C(NCc1ccco1)c1cc([N+](=O)[O-])ccc1N1CCCCC1 | 0.72 | i
O=[N+]([O-])c1cccc(N=NN(CCO)c2cccc([N+](=O)[O-])c2)c1 | 1.6 | i
O=C1CCCC2=C1C(c1cccs1)n1ncnc1N2 (stereo unspecified) | -0.15 | i
COc1cnc(-c2ccccc2)nc1Oc1ccc(Cl)cc1C | -0.01 | i
Cc1ccc(C)c(CN2CCCNC2=O)c1 | 1.21 | i
COc1ccc2nc(NC(=O)C3=NN(c4ccccc4)C(=O)CC3)sc2c1 | 1.77 | i
COc1ccc(NC(=O)CC2C(=O)N(c3cccc(OC)c3)C(=O)N2C2CCCCC2)cc1 (stereo unspecified) | 0.11 | i
CCN(CC)C(=O)C1CCN(c2ncnc3c2cnn3-c2ccc(C)cc2C)CC1 | 4.17 | i
CC(C)Oc1ccc(CCC(=O)NNC(=O)CCC(=O)O)cc1 | -0.68 | i
Cc1cc(C(=O)O)oc(=O)c1 | 0.33 | i
NS(=O)(=O)c1ccc(CCNC(=O)CN2CCCCC2)cc1 | -0.54 | i
O=C(/C=C/c1c(F)cccc1Cl)NCc1ccco1 | 7.25 | i
O=C(Nc1ccccc1F)c1ccc2c(c1)CCN2S(=O)(=O)c1ccccc1 | -0.75 | i
O=C(Nc1cccnc1Cl)c1cc(-c2cccc(O)c2)on1 | -0.1 | i
O=c1c(Cc2c(F)cccc2Cl)c(O)ccn1CCc1c[nH]c2ccccc12 | -0.67 | i
Clc1ccccc1Cn1c(/C=C/c2ccco2)nc2ccccc21 | 2.14* | -7.05*
Cc1cnc(NC(=O)/C=C/c2ccc(Br)o2)s1 | 0.99 | i
Cc1cc(C)c2c(N)c(C(=O)NNC(=O)c3ccccc3)sc2n1 | -0.88 | i
CCOc1ccc(N2C(=O)C(CC(=O)Nc3ccccc3)N(Cc3ccccn3)C2=S)cc1 (stereo unspecified) | 0.4 | i
FC(F)C(F)(F)C(F)(F)C(F)(F)c1cc(-c2ccccc2)n[nH]1 | 0.65 | i
O=C(N=C1SC2CS(=O)(=O)CC2N1c1ccccc1F)C1CCCCC1 (stereo unspecified) | -1.3 | i
Cc1nn(C)c(C(=O)NN)c1Cl | 1.16 | i
CCOc1ccc(Cc2nnc(SCC(=O)Nc3c(C)cccc3C)[nH]c2=O)cc1 | 0.29 | i
CC(=O)Nc1ccc(-c2cc(N)n(-c3ccccc3)n2)cc1 | -0.72 | i
O=C(CN1CCC(C(=O)c2ccc3c(c2)OCCO3)CC1)NCc1ccc(F)cc1 | 1.36 | i
COc1ccccc1CN1CN(S(=O)(=O)c2ccccc2)c2nc3ccccc3nc21 | -1.84 | i
Cc1nn2c(N3CCOCC3)c3c(nc2c1-c1ccccc1)CCCC3 | -0.7 | i
O=C(COc1ccccc1)N/N=C/c1ccc2c(c1)OCO2 | 0.67 | i
CN=C1S/C(=C\c2ccc(Cl)cc2)C(=O)N1C | 0.57 | i
CN1CCN(S(=O)(=O)c2ccc3c(c2)C(C)(C)C(=O)N3C)CC1 | 2.21 | i
COc1cccc(NC(=O)CNC(=O)[C@@H]2Cc3ccccc3CN2C(=O)OC(C)(C)C)c1 | 0.1 | i
CCOc1ccc(S(=O)(=O)N2CCN(C(=S)NCC3CCCO3)CC2)cc1 (stereo unspecified) | -0.03 | i

(further entries)
mol | KCNQ2 block baseline | KCNQ2 block
Clc1ccc(Cn2cc(Br)cn2)cc1Cl | -0.4 | i
CCCSc1nc(-n2ncc(C#N)c2N)c2c3c(sc2n1)CCC(C)C3 (stereo unspecified) | -1.88 | i
COc1cccc(CNC(=O)C(=O)NCC2CCCN2S(=O)(=O)c2cc(C)ccc2C)c1 (stereo unspecified) | -0.71 | i
CN1CCN(C(=O)CSc2nc(-c3cccs3)cc(-c3cccs3)c2C#N)CC1 | -1.36 | i
Fc1ccc(C2=CC(c3cccs3)n3nnnc3N2)cc1 (stereo unspecified) | 0.13 | i
COc1ccc(CN(CC(=O)NCC2CCCO2)C(=O)CCC(=O)Nc2cc(C)ccn2)cc1 (stereo unspecified) | 1.24 | i
O=c1c(-c2ccc(Br)cc2)coc2c(CN3CCOCC3)c(O)ccc12 | -0.04 | i
Cc1ccc(/C=N/n2c(C)cc(C)c(C#N)c2=O)o1 | 0.46 | i
Cc1cc(O)c(/C=N/Nc2ccc(F)cc2)c(=O)o1 | 1.16 | i
O=C1CCCN1c1ccc(S(=O)(=O)Nc2cccnc2)cc1 | 1.13 | i
CCOC(=O)c1c(NC(=O)CSc2nnc(-c3ccccc3)n2CC)sc(C(C)=O)c1C | 0.25 | i
Cc1cccc(-n2c(SCC(=O)Nc3nnc(C)s3)nnc2-c2ccoc2C)c1 | 0.56 | i
CCN(CC(=O)NCc1ccc(F)cc1)C(=O)c1ccc(C(=O)c2ccccc2)cc1 | -0.19 | i
COc1ccc(C2=NOC(C(=O)NCc3cccnc3)C2)cc1OC (stereo unspecified) | 1.6 | i
C[C@H](NC(=O)c1nc[nH]c1C(=O)N[C@@H](Cc1ccccc1)C(=O)OC(C)(C)C)C(=O)OC(C)(C)C | -3.33 | i
CCN(CC)S(=O)(=O)c1ccc(NC(=O)CSc2ncnc3ccccc23)cc1 | -0.69 | i
CC(OC(=O)c1ncc(Cl)c(Cl)c1Cl)C(=O)NC1CCCCC1C (stereo unspecified) | 1.15 | i
CCN(CC)C(=O)CN1C(=O)COCC1=O | 0.65 | i
Cc1ccc(NC(=O)C2C3CCC(O3)C2C(=O)O)cc1C (stereo unspecified) | 0.19 | i
CC(=O)O[C@H]1C(=O)[C@]2(C)[C@H]([C@H](OC(=O)c3ccccc3)[C@]3(O)C[C@H](OC(=O)[C@H](O)[C@@H](NC(=O)c4ccccc4)c4ccccc4)C(C)=C1C3(C)C)[C@]1(OC(C)=O)CO[C@@H]1C[C@@H]2O | -0.11 | i
Cc1ccc(S(=O)(=O)NC(=O)c2cc(C)n(CCCn3ccnc3)c2C)cc1 | -0.29 | i
Cc1ccc(CNC(=O)COC(=O)c2ccc(S(=O)(=O)N(C)C)cc2)cc1 | 0.64 | i
Cc1ccc(NC(=O)c2cnccn2)cc1S(=O)(=O)N(C)C | -0.47 | i
C/C(=N/Oc1nc(C)cc(C)n1)c1ccc(Cl)cc1Cl | 0.57 | i
O=C(COc1ccccc1)NC(=S)Nc1cccc2cc(O)ccc12 | -0.28 | i

Rewritten with the structure last: two of the compounds above
KCNQ2 block baseline | KCNQ2 block | Compound
0.25 | i | CCOC(=O)c1c(NC(=O)CSc2nnc(-c3ccccc3)n2CC)sc(C(C)=O)c1C
0.56 | i | Cc1cccc(-n2c(SCC(=O)Nc3nnc(C)s3)nnc2-c2ccoc2C)c1

Continuation:
mol | KCNQ2 block baseline | KCNQ2 block
Cc1nn(C)c(C)c1C(C)NC(=O)c1cc(COc2ccc(F)c(F)c2)on1 (stereo unspecified) | -0.04 | i
CCOC(=O)Nc1ccc2c(c1)N(C(=O)CCN(C)C)c1ccccc1S2 | -1.51 | i
Cc1ccc(OCc2ccc(C(=O)Nc3c(C)nn(Cc4c(F)c(F)c(F)c(F)c4F)c3C)o2)c([N+](=O)[O-])c1 | -1.86 | i
CCOC(=O)C(C)Sc1ccc2nnc(CCNS(=O)(=O)c3ccc(C)cc3)n2n1 (stereo unspecified) | -0.41 | i
O=C(CCN1CCN(c2ccccn2)CC1)Nc1ccc(F)cc1 | -1.65 | i
CCOc1cccc2cc(-c3csc(NC(=O)CCC(=O)NCCN4CCCCC4C)n3)c(=O)oc12 (stereo unspecified) | -0.32 | i
Cc1ccc(-c2nnc(-c3ccc(NC(=O)Cc4cccs4)cc3)o2)cc1 | 0.35 | i
O=C(Nc1cccc2oc(=O)ccc12)c1ccc([N+](=O)[O-])cc1[N+](=O)[O-] | 0.37 | i
Cc1cc2oc(C(=O)NC3CCS(=O)(=O)C3)cc(=O)c2cc1C (stereo unspecified) | 0.08 | i
COCCn1c(N)c(N(Cc2ccccc2)C(=O)c2ccc(-c3ccc(Cl)cc3)o2)c(=O)[nH]c1=O | -2.26 | i
CC(C)(C)Sc1ccc(/C=N/O)cc1[N+](=O)[O-] | 0.51 | i
Cc1cc(Br)ccc1NC(=O)c1sc2ncnc(N3CCN(c4ccccn4)CC3)c2c1C | -1.82 | i
Cc1ccc(C)c(N2CCN(S(=O)(=O)c3csc(C(N)=O)c3)CC2)c1 | -0.93 | i
COc1ccccc1CCNC(=O)CSc1ccc(-c2cccs2)nn1 | -1.84 | i
C=CCn1c(SCC(=O)c2ccc(NS(=O)(=O)c3ccccc3)cc2)nnc1-c1cccs1 | 0.09 | i
Cc1[nH]c2ccccc2c1C(=O)Cn1c(=O)oc2ccccc21 | -1.39 | i
